# eIF4H FP inh: human eIF4H binding inhibitors, primary screen, translation initiation inhibitor project, biochemical, uHTS, fluorescence polarization; Eukaryotic translation initiation factor 4H (Homo sapiens), Q15056; eIF4H fluorescence polarization binding assay; inhibition, % at 35 µM; hit rate 0.94% among 290,000;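 active means 50% or more with normal probe brightness, or confirmed in later tests; about a fifth of its hits are not listed in these tables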;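 further: calls also rest on retests at 20 µM and on dose response follow-up; 0% = protein and probe with vehicle and 100% = probe without protein; strong numbers were not always called active; many hits fall short of the cut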
# PABP FP inh: PABP poly(A) RNA binding inhibitors, primary screen, biochemical, fluorescence polarization, uHTS | Polyadenylate-binding protein 1 (Homo sapiens), P11940 | inhibition, % at 35 µM | hit rate 1% among 290,000 | AID 2014, 2009;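 active means 50% or more with normal probe brightness, or confirmed in later tests; about a fifth of its hits are not listed in these tables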;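 further: calls also rest on retests at 20 µM and on dose response follow-up; controls were probe without protein and protein plus probe with vehicle; some compounds called inactive have numbers as strong as hits; many hits fall short of the cut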
# Target sequence (P11940 whole entry, looked up): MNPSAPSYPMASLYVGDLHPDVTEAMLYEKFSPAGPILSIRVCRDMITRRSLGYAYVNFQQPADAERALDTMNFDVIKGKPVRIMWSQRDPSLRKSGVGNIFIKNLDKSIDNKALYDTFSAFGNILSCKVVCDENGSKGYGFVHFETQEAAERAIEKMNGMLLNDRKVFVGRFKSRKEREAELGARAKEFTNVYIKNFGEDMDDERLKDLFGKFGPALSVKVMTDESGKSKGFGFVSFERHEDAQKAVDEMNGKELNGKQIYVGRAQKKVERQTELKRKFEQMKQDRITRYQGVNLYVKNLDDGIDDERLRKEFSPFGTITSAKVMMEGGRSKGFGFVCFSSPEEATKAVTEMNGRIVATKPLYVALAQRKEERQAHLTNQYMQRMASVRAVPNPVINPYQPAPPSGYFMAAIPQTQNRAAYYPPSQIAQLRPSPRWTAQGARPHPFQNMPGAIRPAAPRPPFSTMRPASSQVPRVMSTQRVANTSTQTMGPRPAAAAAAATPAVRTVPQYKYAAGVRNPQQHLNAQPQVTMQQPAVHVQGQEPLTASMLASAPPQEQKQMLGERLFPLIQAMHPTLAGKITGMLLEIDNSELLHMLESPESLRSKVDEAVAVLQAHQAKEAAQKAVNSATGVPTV
# Rce1 inhib: yeast Rce1p protease inhibitors, primary screen, biochemical, fluorescence, cell-free homogeneous. calls only. AID 2563, 2010. yeast membranes, quenched prenylated peptide cleavage fluorescence. CAAX prenyl protease 2 (Saccharomyces cerevisiae (strain ATCC 204508 / S288c)), Q03530. hit rate 0.27% among 290,000;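 active means fall in fluorescence gain of 50% or more versus controls, with final raw signal at or below 3038400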;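 further: plate controls were neutral control wells for no effect and wells lacking membranes for full effect; tested at 10 µM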
# HIV Env fusion: inhibitors of HIV-1 Env-driven cell-cell fusion, primary screen, HeLa-JRFL effector, CEM21 target cells, luciferase; inhibition, % at 12.3 µM; AID 651610, 2012; hit rate 1.1% among 360,000;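 active means mean replicate inhibition score of at least 50 and every replicate individually at or above 50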;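 further: 0% = plate neutral controls and 100% = maraviroc near 300 nM; one replicate is shown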
# CSC inhib: cancer stem cell viability inhibitors, primary screen, luminescence | hit rate 1.1% among 300,000 | inhibition, % at 7.5 µM | AID 2717, 2010 | cancer stem cell-like cells viability;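 active means mean at 75% or more and at least half the replicates too; tested in HMLE shEcad cells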;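 further: 0% = median of negative and 100% = median of positive control wells; the first replicate is given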
# UUG fidelity: modulators of yeast start codon fidelity, primary screen, whole organism, S. cerevisiae, single point, plate reader | S. cerevisiae UUG-firefly luciferase reporter, luminescence/redox ratio | activity score, % at 18.7 µM | hit rate 0.13% among 350,000 | AID 602363, 2012;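 active means replicate mean at a twofold rise or more, about +100% in these data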;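 further: firefly luciferase made from a UUG start codon reports start codon fidelity; reporter light over untreated wells divided by growth signal over untreated wells; some hits fall short of that in this replicate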
# MT1-MMP act inh: blockers of MT1-MMP proenzyme processing, primary screen, HT1080 RFP-PRO-GFP cells, GFP/RFP fluorescence; Matrix metalloproteinase-14 (Homo sapiens), P50281; GFP/RFP ratio fluorescence, overnight; percent of plate control window, DMSO zero; GFP/RFP ratio change, % at 20 µM; hit rate 0.061% among 360,000;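 active means GFP/RFP ratio change of at least 30% with cell ATP level not reduced by more than half and red fluorescence within 50% of control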; further: strong numbers were not always called active
#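 Test system: HT1080 RFP-PRO-GFP cells; Benchmarks: DMSO and RFP-L50D-GFP cell wells; Timing: cells overnight before dosing, compound overnight, 37 °C, 5% CO2; Compound: one 20 µM compound dose with 1% DMSO; Read-out: GFP/RFP fluorescence ratio.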
# eIF4H FP inh retest: second read-out of eIF4H FP inh, no call of its own (marks repeat the call); inhibition, %; compound at 20 µM; confirmation average;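 mean of two retest wells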
# PABP FP inh retest: recorded beside PABP FP inh, whose call it bears; inhibition, %; compound at 20 µM; confirmation repeats;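 mean of two retest wells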
# MT1-MMP act inh RFP: second read-out of MT1-MMP act inh, no call of its own (marks repeat the call); RFP signal change, %; measured here: RFP expression control read;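 0 = vehicle wells; hits needed this value within 50% of zero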
# Active calls of the source: *; i = inactive; x = no result given. Some of the compounds tested (hit frequency here may not be typical).
SMILES,eIF4H FP inh,PABP FP inh,Rce1 inhib,HIV Env fusion,CSC inhib,UUG fidelity,MT1-MMP act inh,MT1-MMP act inh RFP,others
COc1cc(C(=O)OCC(=O)N(C)C)cc(NC(=O)c2ccco2)c1OC,25,-3,i,16,-12,-2,10,6,
Cc1cccc(C)c1NC(=O)C(=O)NCCOc1ccc(Cl)cc1,-7,8,i,5,-1,-25,-5,-1,
O=Cc1c(NCc2ccco2)nc2ccccn2c1=O,-1,3,i,5,-5,x,-3,0,
Cc1ccc(-c2noc(CN3CCCCC3)n2)cc1,7,10,i,-67,-1,-11,0,2,
Cc1cc(C(N)=O)nn1-c1c(Cl)cc(Cl)cc1Cl,5,5,i,-9,-8,x,3,7,
COc1ccc(C2CC(c3c(-c4ccccc4)c4cc(Cl)ccc4[nH]c3=O)=NN2C(=O)CCC(=O)O)cc1 (stereo not drawn),0,7,i,14,2,x,-6,0,
COc1cc(C(c2sc3nc(C)nn3c2O)N2CCC3(CC2)OCCO3)cc(OC)c1OC (stereo not drawn),-2,-13,x,-27,6,-6,1,0,
O=C(CCN1CCN(S(=O)(=O)c2ccc(Cl)cc2)CC1)Nc1ccccc1F,0,10,i,-4,-14,x,-4,-7,
COC(=O)c1ccc(C2C(C(C)=O)=C(O)C(=O)N2CCO)cc1 (stereo not drawn),-4,10,i,x,-12,-10,0,2,
CCOC(=O)Cc1csc(NC(=O)CC)n1,-2,2,i,-7,-11,-20,-1,2,
Cc1ccc(N2CCN(C(=O)c3ccccc3F)CC2)c(C)c1,4,-4,i,x,-4,-16,-7,-5,
CCc1c(C(=O)NCc2ccc3c(c2)OCO3)[nH]c(C)c1C(C)=O,4,-4,i,-6,-5,-7,3,0,
O=C(Nc1ccc(O)cc1C(=O)O)c1cccs1,-13,4,i,-12,-16,x,3,7,
COc1ccc(Cc2noc(CN3CCC(c4ccncc4)CC3)n2)cc1OC,10,-10,i,24,2,x,4,-18,
Cc1cccc(Cn2cnc3c(sc4nc(C)cc(C)c43)c2=O)c1,9,1,i,6,21,1,0,0,
COc1cccc(C(=O)NCCC2=CCCCC2)c1,-9,-12,i,-118,-2,-37,-6,-1,
COc1cc(/C=C2/C(=O)ON=C2C)ccc1OCc1cccc(F)c1,26,3,i,-98,24,x,-1,-5,
CC(=O)Oc1ccc(N2C(=O)C3C4C=CC(CC4)C3C2=O)cc1[N+](=O)[O-] (stereo not drawn),7,6,i,18,-6,-3,1,-3,
Cc1ccc(C(=O)NCc2ccc(F)cc2)cc1NC1=NC2CS(=O)(=O)CC2S1 (stereo not drawn),-2,-10,i,-4,-12,-7,0,6,
CCN(CC)CCNC(=O)C1(O)c2cc(Br)ccc2NC(=O)N1c1c(F)cccc1F (stereo not drawn),1,-7,i,-2,-4,-10,2,6,
C#CCSc1nnc(CNS(=O)(=O)c2ccc(Br)cc2)n1C,4,1,i,-8,-12,-2,-2,1,
COc1ccc(N2CCN(CCNC(=O)c3ccc(NC(=O)C4CCCO4)cc3)CC2)cc1 (stereo not drawn),-7,-10,i,-22,x,-17,-3,7,
COc1ccc(OCC(=O)Nc2nonc2NC(=O)COc2ccc(OC)cc2)cc1,-6,24,i,-11,-5,4,0,2,
COc1ccc2nc(SCC(=O)NCc3ccc(F)cc3)[nH]c2c1,-3,6,i,2,-12,-2,-2,-5,
O=C1NN(c2ccccc2)C(=O)C1=Cc1ccccc1O,x,x,x,-17,x,-10,0,4,
NC(=O)NC(=O)CSc1nc2sc(-c3ccccc3)cc2c(=O)n1-c1ccccc1,-12,0,i,0,-8,-10,2,0,
CCN(CC)C(=O)CC(c1ccc(F)cc1)c1ccco1 (stereo not drawn),-1,6,i,x,-7,-24,-2,5,
C=CCN(CC=C)C(=O)c1cc2ccccc2c(=O)o1,3,-8,i,x,0,-16,3,8,
O=C(O)c1cccc(Cn2c(Cl)c(/C=N/NC(=O)c3ccccc3Cl)sc2=O)c1,-4,2,i,x,-12,-13,1,6,
Cc1cc(F)ccc1NC(=O)c1cnccn1,10,-1,i,-31,-9,-4,0,0,
O=C(COC(=O)c1cncc(Br)c1)NCC1CCCO1 (stereo not drawn),4,5,i,-10,-8,-13,8,9,
CC1CCN(CCn2c(=S)[nH]c3cc4c(cc3c2=O)OCO4)CC1,3,-10,i,-3,-1,-8,1,4,
CN(C(=O)COC(=O)CCC1CCCCC1)c1c(N)n(Cc2ccccc2)c(=O)[nH]c1=O,x,x,x,4,-11,1,1,-4,
CCc1c(OC(C)=O)c2ccccc2n(C)c1=O,-2,10,i,x,10,-7,0,4,
Cc1c(NC(=O)c2ccc(NS(=O)(=O)c3cccc([N+](=O)[O-])c3)cc2)c(=O)n(-c2ccccc2)n1C,x,x,x,14,x,4,-3,1,
NC1=NC(c2cn[nH]c2-c2ccc(F)cc2)n2c(nc3ccccc32)N1 (stereo not drawn),-8,-7,i,-19,x,x,x,x,
CCCCn1c(-c2ccco2)n[nH]c1=S,24,7,i,-23,-11,x,3,3,
O=C(Cc1cccs1)NCc1ccc(F)cc1,0,9,i,-87,-8,-2,3,7,
O=C(Nc1nc2ccc(Cl)cc2s1)C1CC1,x,x,i,-54,x,-6,4,-19,
C=CCSc1nc(C)c(CC(=O)OCCCC)c(=O)[nH]1,6,9,i,x,-3,10,0,-1,
CCOc1ccc(C(C)=O)cc1CSc1nnc(-c2cccs2)n1CC1CCCO1 (stereo not drawn),-11,-9,i,-191,1,-10,-2,-3,
O=C1CC(C(=O)NCc2ccccc2)N=C(N2CCCCC2)N1 (stereo not drawn),-2,-6,x,-56,-1,-24,10,6,
CS(=O)(=O)N1CCN(Cc2ccc(C(F)(F)F)cc2)CC1,-8,23,i,-15,-14,x,-1,-2,
CC[C@@H]1CC=C[C@H]2[C@H]1C(=O)N(Cc1ccccc1)[C@H]2c1ccc2ccccc2c1,-8,-6,i,x,x,x,x,x,
O=C(CCCN1C(=O)/C(=C/c2cccs2)SC1=S)NNC(=O)c1ccncc1,10,-7,i,-27,-5,x,3,-5,
CCc1nc(-c2ccc(C)nc2OC)no1,-4,38,i,x,-20,-2,2,3,
Cc1ccc(NC(=O)CSc2nnc(-c3cnccn3)n2-c2ccccc2)cc1,-6,-5,i,-42,7,x,2,3,
CN(C)c1ccc(C(=O)OCc2ccccc2)cc1,3,-7,i,-153,-9,-21,2,0,

# Taken from the entries so far for reference:
SMILES,eIF4H FP inh,PABP FP inh,Rce1 inhib,HIV Env fusion,CSC inhib,UUG fidelity,MT1-MMP act inh,MT1-MMP act inh RFP,others
COC(=O)c1ccc(C2C(C(C)=O)=C(O)C(=O)N2CCO)cc1 (stereo not drawn),-4,10,i,x,-12,-10,0,2,
CCOC(=O)Cc1csc(NC(=O)CC)n1,-2,2,i,-7,-11,-20,-1,2,
Cc1ccc(N2CCN(C(=O)c3ccccc3F)CC2)c(C)c1,4,-4,i,x,-4,-16,-7,-5,
CCc1c(C(=O)NCc2ccc3c(c2)OCO3)[nH]c(C)c1C(C)=O,4,-4,i,-6,-5,-7,3,0,
O=C(Nc1ccc(O)cc1C(=O)O)c1cccs1,-13,4,i,-12,-16,x,3,7,
COc1ccc(Cc2noc(CN3CCC(c4ccncc4)CC3)n2)cc1OC,10,-10,i,24,2,x,4,-18,
Cc1cccc(Cn2cnc3c(sc4nc(C)cc(C)c43)c2=O)c1,9,1,i,6,21,1,0,0,
COc1cccc(C(=O)NCCC2=CCCCC2)c1,-9,-12,i,-118,-2,-37,-6,-1,
COc1cc(/C=C2/C(=O)ON=C2C)ccc1OCc1cccc(F)c1,26,3,i,-98,24,x,-1,-5,
CC(=O)Oc1ccc(N2C(=O)C3C4C=CC(CC4)C3C2=O)cc1[N+](=O)[O-] (stereo not drawn),7,6,i,18,-6,-3,1,-3,
Cc1ccc(C(=O)NCc2ccc(F)cc2)cc1NC1=NC2CS(=O)(=O)CC2S1 (stereo not drawn),-2,-10,i,-4,-12,-7,0,6,
CCN(CC)CCNC(=O)C1(O)c2cc(Br)ccc2NC(=O)N1c1c(F)cccc1F (stereo not drawn),1,-7,i,-2,-4,-10,2,6,
C#CCSc1nnc(CNS(=O)(=O)c2ccc(Br)cc2)n1C,4,1,i,-8,-12,-2,-2,1,
COc1ccc(N2CCN(CCNC(=O)c3ccc(NC(=O)C4CCCO4)cc3)CC2)cc1 (stereo not drawn),-7,-10,i,-22,x,-17,-3,7,
COc1ccc(OCC(=O)Nc2nonc2NC(=O)COc2ccc(OC)cc2)cc1,-6,24,i,-11,-5,4,0,2,
COc1ccc2nc(SCC(=O)NCc3ccc(F)cc3)[nH]c2c1,-3,6,i,2,-12,-2,-2,-5,
O=C1NN(c2ccccc2)C(=O)C1=Cc1ccccc1O,x,x,x,-17,x,-10,0,4,

# Looked up one by one from above, 2 records:
SMILES,eIF4H FP inh,PABP FP inh,Rce1 inhib,HIV Env fusion,CSC inhib,UUG fidelity,MT1-MMP act inh,MT1-MMP act inh RFP,others
CN(C)c1ccc(C(=O)OCc2ccccc2)cc1,3,-7,i,-153,-9,-21,2,0,
O=C1CC(C(=O)NCc2ccccc2)N=C(N2CCCCC2)N1 (stereo not drawn),-2,-6,x,-56,-1,-24,10,6,

# Carrying on.
SMILES,eIF4H FP inh,PABP FP inh,Rce1 inhib,HIV Env fusion,CSC inhib,UUG fidelity,MT1-MMP act inh,MT1-MMP act inh RFP,others
CCOC(=O)C1=C(c2ccccc2)NC(=O)NC1c1cccc(OC)c1OC (stereo not drawn),x,x,i,-7,-10,x,-2,0,
Cc1ccc(NS(=O)(=O)c2cc(C(=O)NCc3cccnc3)ccc2C)cc1,-7,-2,i,-24,-9,-14,1,0,
Cc1c(C)n(Cc2ccccc2)c2ncnc(N)c12,2,-2,i,-43,-12,-8,-5,-13,
O=C(C1=COCCO1)N1CCN(S(=O)(=O)c2cccc(Cl)c2Cl)CC1,8,4,i,-3,-5,x,2,-7,
C#CCOCC1CN(C)C(=O)O1 (stereo not drawn),x,x,x,-9,x,-16,0,-1,
Cc1cccc(-n2c(-c3ccc(Br)o3)n[nH]c2=S)c1,x,x,i,-3,0,x,3,-1,
CCC(C)(C)NC(=O)C(c1ccccc1)N(Cc1cccs1)C(=O)Cn1nnc2ccccc21 (stereo not drawn),x,x,i,x,-6,x,-15,-7,
O=S(=O)(NC(=NCc1ccccc1)c1ccccc1F)c1ccccc1,7,1,i,-1,1,-10,-1,3,
CCCCn1c(N)c(N(CC(C)C)C(=O)C2CCN(S(=O)(=O)c3ccc(Cl)cc3)CC2)c(=O)[nH]c1=O,x,x,i,0,0,6,1,1,
CC(=O)Nc1ccc(SCC(=O)c2cc(C)n(-c3ccccc3)c2C)cc1,-2,3,i,-38,84*,x,-1,0,
O=C(COC(=O)c1cc2ccccc2oc1=O)c1cccc([N+](=O)[O-])c1,-4,-12,i,x,-10,x,1,3,
O=C(O)c1ccc(N/N=C/c2ccc(-c3cc(Cl)ccc3Cl)o2)cc1,59,1,i,-85,15,-14,-4,-4,eIF4H FP inh retest=29;PABP FP inh retest=34
